Lassa entry inh: Lassa virus entry inhibition | Lassa virus pseudotype entry inhibition, cell reporter; control for the full effect not named in the record | Potency, µM (highest dose often 37.9 µM), without a hit: top-dose activity change, negative = inhibition, usual class: inhibitors | actives 1.2% (n = 300,000); active means well fitted inhibition curve with a large enough effect; inconclusive means small, poorly fitted or top-dose-only effect, or effect the other way; inactive means flat fitted curve, though single readings scatter; tested in HEK293 cells; also: % is scaled to controls: 0 for no effect and ±100 for the full control effect; nearly all actives have a fitted effect of over 50% in size; luciferase read-out
Cruzain noTriton: blocks cruzain activity in detergent-free assay. P25779. AID 1476. purified cruzain, Z-FR-AMC fluorescence, no detergent. actives 2.3% (n = 200,000). Potency, µM, without a hit: max response, negative = inhibition, hits mostly inhibitors; active = well fitted curve in the direction sought with a large enough effect; inconclusive = small, poorly fitted or top-dose-only effect, or another doubt; inactive = no such curve, though single readings can be large; an effect the other way counts as inactive or inconclusive;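 also: plate controls were enzyme without inhibitor for no effect and buffer without enzyme for full effect; nearly all actives have a fitted effect of over 40% in size; top concentration of the series not given in the record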
Target sequence (P25779 123-467 limits assumed): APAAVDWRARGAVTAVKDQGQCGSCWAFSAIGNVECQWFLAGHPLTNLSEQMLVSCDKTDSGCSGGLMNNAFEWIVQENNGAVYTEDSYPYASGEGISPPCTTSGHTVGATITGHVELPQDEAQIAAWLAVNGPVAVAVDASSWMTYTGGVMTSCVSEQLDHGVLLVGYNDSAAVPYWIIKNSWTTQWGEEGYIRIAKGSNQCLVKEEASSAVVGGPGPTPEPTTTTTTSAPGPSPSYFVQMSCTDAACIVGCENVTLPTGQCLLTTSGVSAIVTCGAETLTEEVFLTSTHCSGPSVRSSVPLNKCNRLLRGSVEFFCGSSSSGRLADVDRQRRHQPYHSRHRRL
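Purified cruzain at 1.5 nM, pre-incubated 15 min with compound at room temperature in 100 mM sodium acetate pH 5.5, 5 mM DTT, 0.00005% Triton X-100. Reaction started with 2 uM Z-FR-AMC; AMC fluorescence increase over 60 s gives rate.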
RE007 growth inh: less growth of the S. pombe RE007 Vpr strain | S. pombe RE007 Vpr strain, BacTiter-Glo ATP luminescence, 24 h; control for the full effect not named in the record | Potency, µM (highest dose often 92.2 µM), inactives show top-dose activity change, negative = less growth | actives 0.21% (n = 360,000) | AID 651644; active = well fitted falling curve with a large enough effect; inconclusive = small, poorly fitted or top-dose-only effect; inactive = no such curve, though single readings can be large or run the other way;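 also: % is scaled to controls: 0 for no effect and ±100 for the full control effect; nearly all actives have a fitted effect of over 50% in size; the assay follows cell death caused by Vpr and the record does not say whether a fall means rescue or toxicity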
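Fission yeast strain RE007, carrying one chromosomally integrated HIV-1 vpr copy, was seeded at OD 0.01 in PMG+AL medium with 23 nL pinned compound. After 24 h at 30 °C and 99% humidity, viability was read by BacTiter-Glo luminescence.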
SARS PLpro yeast: SARS-CoV PLP inhibition in yeast. actives 0.19% (n = 330,000). S. cerevisiae expressing SARS-CoV PLpro, growth rescue; control for the full effect not named in the record. Potency, µM (series often up to 32.9 µM), inactives show top-dose activity, positive = growth rescue; also: 0% is about no effect; nearly all actives have a fitted effect of over 55% in size; growth read by luminescence after 48 h
Cruzain Triton: cruzain (T. cruzi) inhibition with detergent; P25779; purified cruzain, Z-FR-AMC fluorescence, 0.01% Triton; Potency, µM, for inactives: max response, negative = inhibition, most hits filed as inhibitors; actives 0.43% (n = 200,000); active = well fitted curve in the direction sought with a large enough effect; inconclusive = small, poorly fitted or top-dose-only effect, or another doubt; inactive = no such curve, though single readings can be large; an effect the other way counts as inactive or inconclusive;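 also: plate controls were neutral wells for no effect and buffer without enzyme for full effect; nearly all actives have a fitted effect of over 40% in size; top concentration of the series not given in the record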
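Detergent-containing arm of a paired screen for aggregation-based inhibition: 0.01% Triton X-100 present. Cruzain at 1.5 nM cleaved 2 uM Z-FR-AMC at pH 5.5 with 5 mM DTT; AMC fluorescence gain over 60 s measured activity.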
MARV entry inh: Marburg virus entry inhibition | AID 540276 | Potency, µM (doses to about 37.8 µM), for the others: at the highest dose activity change, negative = inhibition, most hits filed as inhibitors | actives 1.8% (n = 300,000) | Marburg virus pseudotyped entry inhibition, cell reporter; control for the full effect not named in the record; about a third of the inactives were read at about 46 µM; active = well fitted inhibition curve with a large enough effect; inconclusive = small, poorly fitted or top-dose-only effect, or effect the other way; inactive = flat fitted curve, though single readings scatter; tested in HEK293 cells; about a fifth of its hits are not listed in these tables; also: % is scaled to controls: 0 for no effect and ±100 for the full control effect; luciferase read-out
NS1 function inh: blocks influenza NS1 protein function; S. cerevisiae slowed by influenza A NS1, growth recovery by OD600; Potency, µM (top dose mostly 46.1 µM), without a hit: at the highest dose activity, positive = more growth; actives 0.4% (n = 270,000); AID 2326; also: actives are rising curves; nearly all actives have a fitted effect of over 50% in size
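Recovery from NS1-induced slow growth read by OD600 in budding yeast switched to galactose assay medium (pH 6.0, -URA) at 1:100 dilution. Compound 23 nl per well; the matching strain lacking NS1 serves as control.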
StopGo reporter: FMDV 2A StopGo reporter, luciferase signal; human cells with a luciferase reporter of 2A StopGo recoding; control for the full effect not named in the record; Potency, µM (highest dose often 57.9 µM), without a hit: at the highest dose signal change, negative = less light; actives 1.2% (n = 410,000); AID 1159524; active = well fitted falling curve with a large enough effect; inconclusive = small, poorly fitted or top-dose-only effect; inactive = no such curve, though single readings can be large or run the other way; tested in HEK293T cells; also: % is scaled to controls: 0 for no effect and ±100 for the full control effect; nearly all actives have a fitted effect of over 45% in size; luciferase light after 4 h
* marks the source's active call; other numbers are inactive results; ? = inconclusive; . = not tested or not shown; & = joins results of further samples; [ ] = remark or other dose. Unless noted, calls follow the shape of the dose curve; as a rule, active means well fitted rising curve with a large enough effect; inconclusive means small, poorly fitted or top-dose-only effect; inactive means no such curve, though single readings can be large or run the other way. Potency is read from the fitted curve at half-maximal effect.

SMILES | Lassa entry inh | Cruzain noTriton | RE007 growth inh | SARS PLpro yeast | Cruzain Triton | MARV entry inh | NS1 function inh | StopGo reporter
Cc1ccc(C(=O)OCC(=O)N(C)c2ccccc2)c(C)c1 | -3% | . | -13% | -1% | . | 11%[46.1 µM] | -20% | 26%
CCOc1ccc(/C=C2\SC(=S)N(NS(=O)(=O)c3ccccc3)C2=O)cc1OC | . | . | -4% | -1% | . | . | -52% | -13%
COc1ccc(SCc2noc(C(=O)NCC3CCCO3)c2C(=O)O)cc1 (stereo unspecified) | . | 10% | 2% | -14% | 0.5% | . | -4% | 2%
COc1cc(NC(=O)CCS(=O)(=O)c2ccc3c(c2)CC(=O)N3C)cc(OC)c1OC | ? | 3% | . | . | -1.9% | . | . | -10%
COc1ccc(NC(=O)N2CCCC2C(=O)Nc2ccccc2)cc1 (stereo unspecified) | 10% | 1% | 4% | 4% | 4.2% | -3% | -7% | 0%
Cc1c(-c2nc(-c3ccc(C(C)(C)C)cc3)no2)n(C)oc1=O | . | . | 2% | 0% | . | ? | -6% | 63µM*
CCC(C)c1ccc(N2C(=O)NC(=O)/C(=C/c3cccn3CCOc3ccc(C)cc3)C2=O)cc1 (stereo unspecified) | . | -21% | -5% | -29% | -5.4% | 1% | 2% | -24%
CCC(Nc1ccc(-c2nc(-c3ccccn3)no2)cc1[N+](=O)[O-])c1ccccc1 (stereo unspecified) | -1%[46.1 µM] | 5% | . | . | -14% | 8%[46.1 µM] | . | 0%
Cc1ccc(C)c(N2CN(Cc3ccco3)CNC2=S)c1 | -7% | -10% | -9% | -10% | -2.4% | 14% | 6% | -3%
O=S(=O)(Cc1ccccc1)N1CCN(c2ccccc2)CC1 | 25% | ? | -6% | 2% | 0.0% | ? | -2% | -4%
Cc1ccc(-c2nnc(OCC3CCCO3)c3ccccc23)cc1 (stereo unspecified) | . | . | 6% | 0% | . | -32%[46.1 µM] | -5% | -10%
COc1ccccc1OCCCC(=O)NCc1ccco1 | -1% | . | -18% | 0% | . | 0%[46.1 µM] | -2% | 15%
COc1ccc(NC(=O)c2c(NCc3cccc(OC)c3)sc3c2CCCC3)cc1 | -8%[46.1 µM] | -2% | . | . | -5.4% | . | . | 32%[activator]
O=C(O)C1CCCCC1C(=O)Nc1nc(-c2cccs2)cs1 (stereo unspecified) | 7% | ? | -1% | 3% | -5.3% | 24%[46.1 µM] | -9% | -4%
COc1cccc(C(=O)Cn2c(NCCCO)nc3ccccc32)c1 | . | . | -3% | 7% | . | . | -3% | -16%
O=C(CS(=O)(=O)c1ccccc1)Nc1ncc([N+](=O)[O-])s1 | 2% | . | -24% | -2% | . | 1%[46.1 µM] | 26% | 26%
Cc1ccc(S(=O)(=O)N(CC(=O)Nc2cccc([N+](=O)[O-])c2)C(=O)N2CCN(C)CC2)cc1 | ? | . | 3% | . | . | 8% | . | 8%
CCN(CC(=O)Nc1cc(Cl)ccc1C)C(=O)C1CC1 | 3% | . | 9% | 3% | . | 4% | . | -13%
COc1ccccc1-c1cc(C(=O)N/N=C/c2cccs2)c2ccccc2n1 | ? | -13% | 4% | -16% | -9.8% | ? | 16% | -23%
CCCCn1c2nc3ccccc3nc2c2c(=O)n(C(C)CC)cnc21 (stereo unspecified) | 11% | ? | 6% | -6% | -9.9% | ? | -3% | -16%
C/C(=N\Nc1ccccc1[N+](=O)[O-])c1ccc(N2CCOCC2)cc1 | 4% | . | -20% | -1% | . | 14%[46.1 µM] | 20% | 64%[activator]
CN(C)S(=O)(=O)c1cccc(NC(=O)CSc2cccc3cccnc23)c1 | -20% | . | ? | -2% | . | ? | -28% | 59%[activator]
CCn1cc(SCC(=O)N2CCc3ccccc32)c2ccccc21 | . | -1% | -8% | -11% | -8.5% | . | -1% | 18%
CCN(CC)S(=O)(=O)c1ccc(N2CCOCC2)c(NC(=O)CC(C)(C)C)c1 | . | . | -8% | 0% | . | . | 2% | -17%
CC(C)Cc1nc(SCc2cccnc2)c2c(=O)n(C)c(=O)n(C)c2n1 | ? | . | 11% | 0% | . | ? | . | ?
Cc1ccc(CC2S/C(=N/c3ccccn3)NC2=O)cc1 (stereo unspecified) | -21% | ? | -10% | -11% | 3.9% | 3% | 1% | -3%
CNC(=S)N(CCCO)Cc1cc2cc3c(cc2[nH]c1=O)OCO3 | . | . | 5% | 0% | . | . | 2% | -24%
N#Cc1cc(C(=O)c2cc(Br)ccc2O)cn(C2CCCCC2)c1=O | ? | -21% | 5% | 7% | -8.4% | ? | 12% | ?
O=C(Cn1cnc2ccccc2c1=O)NCc1ccco1 | 0% | -4% | 4% | . | 4.7% | 15% | -3% | -17%
CCOc1cc(CNCc2ccccn2)cc(Cl)c1OCC | -4%[46.1 µM] | . | 4% | 1% | . | -2%[46.1 µM] | 1% | ?
CCCCC(=O)Nc1ccc2c3c(cccc13)CC2 | 7% | 3% | 7% | -22% | -3.0% | 0% | -2% | 23%
O=C(O)c1ccccc1/C=N/NC(=S)NC1CCCCC1 | . | . | 17% | -1% | . | . | 1% | 8%
N#C/C(=C/c1ccc(-c2ccc([N+](=O)[O-])cc2)o1)c1nnc(N2CCOCC2)n1-c1ccccc1 | 14% | . | -1% | . | . | 5% | . | ?
CCOCC(=O)Nc1ccccc1C(=O)N1CCOCC1 | 29%[46.1 µM] | . | 6% | 1% | . | -5%[46.1 µM] | ? | -7%
CCOC(=O)CSc1ccc(S(=O)(=O)N(C)C2CCCCC2)cc1[N+](=O)[O-] | 11% | 5% | 3% | 2% | -1.7% | 1% | -4% | .
COc1ccc(Nc2ccc(S(=O)(=O)N3CCCCCC3)cc2[N+](=O)[O-])cc1 | ? | 2% | -6% | -3% | -6.2% | ? | 17% | 0%
CCOC(=O)c1c(C)[nH]c(C(=O)CSc2nc(C)cc(C)n2)c1C | -18% | -3% | 15% | 5% | -4.0% | -7% | 3% | -20%
COc1cc(C(=O)NNc2nc3cc4c(cc3s2)OCO4)cc(OC)c1OC | -2% | -12% | 8% | -9% | -4.5% | ? | -5% | -25%
CC(C)C(C)(C#N)NC(=O)CN1C(=O)NC2(CCCc3ccccc32)C1=O (stereo unspecified) | 15%[46.1 µM] | . | -6% | -3% | . | 13%[46.1 µM] | 2% | -1%
COc1ccc(CC2(CO)CCN(S(=O)(=O)c3cccc4cccnc34)CC2)cc1 | . | . | 0% | 9% | . | . | 1% | -20%
COC(=O)CC1=C(c2ccc([N+](=O)[O-])cc2)CCC1=O | 0%[46.1 µM] | . | -16% | . | . | -7%[46.1 µM] | . | 5%
CCOC(=O)N1CCN(S(=O)(=O)N2CCCC(C(=O)NCCCN3CC(C)CC(C)C3)C2)CC1 (stereo unspecified) | . | . | -5% | 8% | . | . | ? | -15%
COc1ccc(OC)c(Nc2c3ccccc3nc3ccccc23)c1 | ? | . | 1% | -4% | . | 6.3µM* | -9% | ?
COc1cccc(NC(=O)CN(C)C(=O)/C=C/c2cc(OC)ccc2OC)c1 | 6% | -3% | -2% | 5% | -1.1% | 14% | -9% | -8%
CCOc1ccc(-c2cc(CCCC(=O)Nc3cc(OC)ccc3OC)no2)cc1 | ? | 27% | 5% | -5% | -4.8% | ? | 3% | -1%
Cc1cc(NC(=O)COC(=O)C2COc3ccccc3O2)no1 (stereo unspecified) | 0% | -6% | 33% | 19% | 6.5% | 3% | -8% | -12%
Cc1c(NC(=O)c2ccc(Br)s2)c(=O)n(-c2ccccc2)n1C | 2% | . | 3% | 0% | . | -5% | . | 5%
COc1ccc(Cc2nnc(NC(=O)c3cccs3)s2)cc1 | -8% | -12% | -1% | 4% | 4.6% | 0% | -1% | 49%[activator]
CC(C)NC(=O)COC(=O)c1ccc(Cl)c(S(N)(=O)=O)c1 | . | . | 3% | 3% | . | -18%[46.1 µM] | . | 14%
CCn1cc(Cl)c(C(=O)Nc2ccc(OC)c(OC)c2)n1 | -4%[46.1 µM] | . | 1% | 1% | . | -2%[46.1 µM] | . | 22%

The list continues.
SMILES | Lassa entry inh | Cruzain noTriton | RE007 growth inh | SARS PLpro yeast | Cruzain Triton | MARV entry inh | NS1 function inh | StopGo reporter
COc1ccc(N2C(=O)CC(Sc3nc(C)cc(C)c3C#N)C2=O)cc1 (stereo unspecified) | 5% | -18% | -12% | -22% | -2.9% | 10% | -47% | .
CCCS(=O)(=O)c1nc(S(=O)(=O)c2ccc(C)cc2)c(NCCCn2ccnc2)s1 | -3%[46.1 µM] | . | -17% | -5% | . | ? | -19% | 13%
O=CNC1(c2ccccc2)CCCCC1 | 6% | . | 25% | . | . | 2% | . | -14%
Cn1c(=O)c(C(=O)c2ccccc2)c(O)c2ccccc21 | -2% | . | 0% | . | . | 11%[46.1 µM] | . | -7%
CCN1CCCC1CNC(=O)C1CCCN(S(=O)(=O)c2cccc3nsnc23)C1 (stereo unspecified) | 11% | 13% | -16% | 10% | -4.9% | 2% | ? | -2%
C/C(=N\NC(=O)c1cccc(S(=O)(=O)N2CCCC2)c1)c1ccc(OCC(=O)N(C)C)cc1 | 18% | . | 1% | 4% | . | 30%[46.1 µM] | . | -12%
O=c1cc(Cl)c(-c2ccccc2)n[nH]1 | -14% | -5% | 17% | -3% | 2.6% | -15% | -5% | -2%
COc1cc(/C=N/NC(=O)c2cccnc2)ccc1OC(=O)c1cccc(Br)c1 | 8% | . | -18% | ? | . | 3% | -11% | -21%
O=C(O)Cc1ccc(O)c(F)c1 | 9% | -9% | 4%[18.4 µM] | -2% | 1.6% | 10%&10% | 7% | -13%
C[C@@H]1C=C(C(=O)N2CCOCC2)O[C@H](OCc2ccc(CO)cc2)C1 | . | . | -10% | 0% | . | . | 0% | -4%
Cc1ccc(-c2nn(-c3ccccc3)cc2/C=N/NC(=O)c2ccncc2)o1 | ? | . | 189% | -1% | . | -2%[46.1 µM] | . | 5%
CC(=O)Nc1nonc1-c1nnc(SCC(=O)Nc2cc(C)cc(C)c2)n1-c1ccccc1 | 13%[46.1 µM] | ? | . | . | -1.0% | -8%[46.1 µM] | . | -18%
COc1ccc(-c2noc(CNS(=O)(=O)c3ccc(NC(C)=O)cc3)n2)cc1OC | . | . | 20% | 4% | . | . | 5% | -30%
